High-throughput results: PubChem BioAssay, National Center for Advancing Translational Sciences (NCATS)
2A StopGo: lowers the luciferase signal of an FMDV 2A StopGo reporter | human cells with a luciferase reporter of 2A StopGo recoding; control for the full effect not named in the record | Potency, µM (top dose mostly 57.9 µM), without a hit: top-dose signal change, negative = less light | 410,000 compounds, 1.2% hits | AID 1159524; active = well fitted falling curve with a large enough effect; inconclusive = small, poorly fitted or top-dose-only effect; inactive = no such curve, though single readings can be large or run the other way; tested in HEK293T cells; note: nearly all actives have a fitted effect of over 45% in size; luciferase light after 4 h
RE007 growth inh: less growth of the S. pombe RE007 Vpr strain; Potency, µM (top dose mostly 92.2 µM), inactives show at the top dose activity change, negative = less growth; S. pombe RE007 Vpr strain, BacTiter-Glo ATP luminescence, 24 h; control for the full effect not named in the record; 360,000 compounds, 0.21% hits; active = well fitted falling curve with a large enough effect; inconclusive = small, poorly fitted or top-dose-only effect; inactive = no such curve, though single readings can be large or run the other way;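 note: nearly all actives have a fitted effect of over 50% in size; the assay follows cell death caused by Vpr and the record does not say whether a fall means rescue or toxicity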
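Fission yeast RE007 carrying one integrated HIV-1 vpr copy, seeded at OD 0.01 in PMG+AL medium with 23 nL pinned compound. Grown 24 h at 30 degrees; viability read by BacTiter-Glo luminescence after 5 min.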
* hit, by the source's call; ? = inconclusive; [ ] = remark or other dose. % is set by controls: 0 for no effect and ±100 for the full control effect; potency is the fitted concentration of half-maximal effect.

SMILES | 2A StopGo | RE007 growth inh
Cc1noc(C)c1C(=O)OC(C)C(=O)Nc1ccc([N+](=O)[O-])cc1C(F)(F)F (stereo not drawn) | 8.1% | 17.6%
COc1cccc(C(O)c2ncc(-c3ccccc3)[nH]2)c1 (stereo not drawn) | 48.4%[activator] | -15.4%[18.4 µM]
COc1ccc2c(CN3CCN(Cc4ccccc4)CC3)cc(=O)oc2c1 | ? | -15.2%
O=C1CCN(Cl)C(=O)N1Cl | -16.4% | -7.8%
COCCN(C(=O)COC(=O)CSc1cc(C)ccc1C)c1c(N)n(Cc2ccccc2)c(=O)[nH]c1=O | -13.9% | -10.8%
COc1ncccc1-c1cc2nc(NCCNC(C)=O)n(C)c(=O)c2s1 | 5.9% | 14.9%
O=C(Nc1ccc2c(c1)[C@@H]1C[C@@H](CC(=O)N3CCCCC3)O[C@@H](CO)[C@@H]1O2)NC1CCCCC1 | -19.6% | -8.8%
CCN(CC)c1ccc(C(=C2C=CC(=[N+](CC)CC)C=C2)c2ccc(N(CC)CC)cc2)cc1 | 8.91µM* | ?
COc1cc(C(=O)O)c2c(c1C)OC(=O)c1c(C)cc(O)c(C=O)c1O2 | 2.4% | -3.6%
C[C@@H]1CN([C@H](C)CO)C(=O)CCCn2nncc2CO[C@H]1CN(C)S(=O)(=O)c1ccc(Cl)cc1 | -8.8% | -3.3%
CC(C)n1c(=O)c2ccccc2n1Cc1cn(Cc2ccccc2)nn1 | -18.9% | 10.7%
CC1(C(=O)NS(=O)(=O)c2ccccc2OC(F)(F)F)CCN1C(=O)c1ccco1 (stereo not drawn) | -17.8% | 0.5%[18.4 µM]
CN(C)CCNC(=O)c1cccc(-c2cnc3c(NC=O)cc(-c4cc(F)c(F)c(F)c4)cn23)c1 | -6.3% | -6.8%[18.4 µM]
O=C(NCC(F)(F)F)c1ccc2sc([C@H]3C[C@H](O)[C@@H](CO)O3)nc2c1 | 18.5% | -0.5%[18.4 µM]
CC1NC(=O)c2cc3ccccc3cc2-n2c1nc1ccc(F)cc1c2=O (stereo not drawn) | -19.1% | -12.8%
NC(Cc1ccc(Cl)cc1)c1csc(Nc2ccc(-c3ccccc3)nn2)n1 (stereo not drawn) | -2.6% | 14.3%
C[C@@H]1CN([C@@H](C)CO)C(=O)CCCn2cc(nn2)CO[C@H]1CN(C)S(=O)(=O)c1cccs1 | -15.9% | -5.5%
Cc1nc(-c2ccc(F)cc2)c(CC(=O)N(C)CC(=O)Nc2ccc(Cl)c(C(F)(F)F)c2)s1 | ? | 6.4%
CCOC(=O)c1c(C)[nH]c(C(=O)OCc2ccc(C)cc2)c1C | 67.4%[activator] | -14.1%
CC(CO)NS(=O)(=O)c1cc(Cl)ccc1F (stereo not drawn) | -22.9% | 5.2%
CCOC(=O)[C@]12CCCC=C1N(CCC1=CCCCC1)C(=O)[C@H](CC(=O)NCc1ccc(OC)c(OC)c1)C2 | -17.1% | -5.5%
CC1(C(=O)NS(=O)(=O)c2ccc(C#N)cc2)CCN1C(=O)Cc1cccc2ccccc12 (stereo not drawn) | -7.9% | 1.2%
CC[C@]12C(=O)N(C)C[C@H]([C@@H]3C(=O)N(Cc4ccccc4)C(=O)[C@@H]31)N2C(=O)c1ccc(C(C)(C)C)cc1 | -17.5% | 6.5%
CCNC(=O)C[C@@H]1C=C[C@@H](NS(=O)(=O)c2ccc(F)cc2)[C@@H](CO)O1 | -0.4% | -3.6%
CC1(C)CC(=O)C=C(c2ccc(CO)cc2)C1=O | -18.3% | -0.7%

Part of the list above, as tab-separated lines:
Compound	2A StopGo	RE007 growth inh
O=C(Nc1ccc2c(c1)[C@@H]1C[C@@H](CC(=O)N3CCCCC3)O[C@@H](CO)[C@@H]1O2)NC1CCCCC1	-19.6%	-8.8%
CCN(CC)c1ccc(C(=C2C=CC(=[N+](CC)CC)C=C2)c2ccc(N(CC)CC)cc2)cc1	8.91µM*	?
COc1cc(C(=O)O)c2c(c1C)OC(=O)c1c(C)cc(O)c(C=O)c1O2	2.4%	-3.6%
C[C@@H]1CN([C@H](C)CO)C(=O)CCCn2nncc2CO[C@H]1CN(C)S(=O)(=O)c1ccc(Cl)cc1	-8.8%	-3.3%
CC(C)n1c(=O)c2ccccc2n1Cc1cn(Cc2ccccc2)nn1	-18.9%	10.7%
CC1(C(=O)NS(=O)(=O)c2ccccc2OC(F)(F)F)CCN1C(=O)c1ccco1 (stereo not drawn)	-17.8%	0.5%[18.4 µM]
CN(C)CCNC(=O)c1cccc(-c2cnc3c(NC=O)cc(-c4cc(F)c(F)c(F)c4)cn23)c1	-6.3%	-6.8%[18.4 µM]
O=C(NCC(F)(F)F)c1ccc2sc([C@H]3C[C@H](O)[C@@H](CO)O3)nc2c1	18.5%	-0.5%[18.4 µM]
CC1NC(=O)c2cc3ccccc3cc2-n2c1nc1ccc(F)cc1c2=O (stereo not drawn)	-19.1%	-12.8%
NC(Cc1ccc(Cl)cc1)c1csc(Nc2ccc(-c3ccccc3)nn2)n1 (stereo not drawn)	-2.6%	14.3%
C[C@@H]1CN([C@@H](C)CO)C(=O)CCCn2cc(nn2)CO[C@H]1CN(C)S(=O)(=O)c1cccs1	-15.9%	-5.5%
Cc1nc(-c2ccc(F)cc2)c(CC(=O)N(C)CC(=O)Nc2ccc(Cl)c(C(F)(F)F)c2)s1	?	6.4%
CCOC(=O)c1c(C)[nH]c(C(=O)OCc2ccc(C)cc2)c1C	67.4%[activator]	-14.1%
CC(CO)NS(=O)(=O)c1cc(Cl)ccc1F (stereo not drawn)	-22.9%	5.2%
CCOC(=O)[C@]12CCCC=C1N(CCC1=CCCCC1)C(=O)[C@H](CC(=O)NCc1ccc(OC)c(OC)c1)C2	-17.1%	-5.5%
CC1(C(=O)NS(=O)(=O)c2ccc(C#N)cc2)CCN1C(=O)Cc1cccc2ccccc12 (stereo not drawn)	-7.9%	1.2%
CC[C@]12C(=O)N(C)C[C@H]([C@@H]3C(=O)N(Cc4ccccc4)C(=O)[C@@H]31)N2C(=O)c1ccc(C(C)(C)C)cc1	-17.5%	6.5%
CCNC(=O)C[C@@H]1C=C[C@@H](NS(=O)(=O)c2ccc(F)cc2)[C@@H](CO)O1	-0.4%	-3.6%
CC1(C)CC(=O)C=C(c2ccc(CO)cc2)C1=O	-18.3%	-0.7%

Further compounds follow:
SMILES | 2A StopGo | RE007 growth inh
Cc1nc2c(OCc3ccc(Cl)cc3)cccn2c1N(C)C(=O)CCC1CCCC1 | ? | 0.6%
CC(C)N(C)c1ncnc2c1ncn2[C@H]1CN(Cc2ccccc2)C[C@@H](CO)O1 | -8.5% | 7.5%
O=C(NCP(=O)(Oc1ccccc1)Oc1ccccc1)OCc1ccccc1 | 48.7%[activator] | 1.0%[18.4 µM]
CC(O)(c1ccccc1)c1nc(-c2cccc(F)c2)cs1 (stereo not drawn) | 0.0% | ?
C[C@H]1CN([C@@H](C)CO)C(=O)c2cc(Br)cnc2O[C@H]1CN(C)C(=O)c1cccnc1 | -18.9% | -2.2%
CCC1CC(=O)CCN1S(=O)(=O)c1ccc(C)cc1 (stereo not drawn) | -3.2% | 0.2%
COc1ccc(C(=O)Nc2ccccc2C(=O)Nc2ccccc2)cc1 | 27.5% | -5.5%
COc1ccccc1NC(=O)N(C)C[C@H]1Oc2ncc(Br)cc2C(=O)N([C@H](C)CO)C[C@H]1C | -14.2% | 26.7%
CC1=C(C(=O)N2CCCCCC2)CC(CC(=O)NCc2cccs2)C(=O)N1CCC1=CCCCC1 (stereo not drawn) | -3.4% | -15.3%
C=CCNc1nc(NCCCN2CCCC2=O)c2sc(-c3ccccc3)cc2n1 | -8.8% | -11.3%
Cc1c(C(=O)NCc2ccccn2)sc(=O)n1Cc1ccc(-c2ccccc2)cc1 | -6.4% | 7.4%[18.4 µM]
CCN(CC)S(=O)(=O)c1ccc(N2CCOCC2)c(NS(=O)(=O)c2ccc(Cl)s2)c1 | 28.3% | 2.1%
CC(=O)c1cccc(-c2ccnc3c2CC(C(=O)Nc2cccc(Oc4ccccc4)c2)O3)c1 (stereo not drawn) | -10.2% | 1.1%
Cc1ccc(OCC(=O)OCC(=O)NC2CCS(=O)(=O)C2)cc1C (stereo not drawn) | -7.1% | -1.7%
O=S1(=O)CC(N2CC=CC2)CN1Cc1cn(Cc2ccc(Cl)cc2)nn1 (stereo not drawn) | -3.3% | -3.8%
c1ccc2c(c1)CCc1ccccc1C2=C1CCNCC1 | ? | 10.9%
Cc1cc(C)cc(NC(=O)C2CCCCN2S(=O)(=O)c2ccccc2)c1 (stereo not drawn) | -27.7% | 5.8%
Nc1nc2c(ncn2[C@@H]2O[C@H](CNCC3=Cc4cc(O)ccc4OC3)[C@@H](O)[C@H]2O)c(=O)[nH]1 | -10.1% | 1.1%
CCc1nc2ccc(C(=O)Nc3ccc(OC)c(OC)c3)cn2c1N(C)Cc1ccc(N(C)C)cc1 | -7.1% | -25.9%
COc1ccc(C#Cc2ccc3c(c2)O[C@@H](CN(C)C(=O)Nc2cccc(OC)c2)[C@H](C)CN([C@@H](C)CO)S3(=O)=O)cc1 | 35.4%[activator] | 7.5%
c1ccc(CN2COC3CCCCCC32)cc1 (stereo not drawn) | -6.9% | 8.0%
CC(C)c1ccc(NC(=O)C2Cc3c(-c4cccc(F)c4)ccnc3O2)cc1 (stereo not drawn) | -27.3% | -14.7%[18.4 µM]
Cc1ncc(C(O)c2ccccc2)n1Cc1ccccc1 (stereo not drawn) | -12.7% | -13.4%
CC1=C(C(=O)N(C)C)CC(CC(=O)NCC2CCCCC2)C(=O)N1Cc1ccccc1 (stereo not drawn) | -6.5% | -2.2%
C#CCN(C[C@@H]1[C@@H](OC(=O)NCc2ccco2)[C@@H](OC(=O)NCc2ccco2)CN(C(=O)OC(C)C)N1C(=O)OC(C)C)S(=O)(=O)c1ccc(C)cc1 | -25.4% | -5.5%

The listing continues.
SMILES | 2A StopGo | RE007 growth inh
CNc1cccc(-c2ccc(C(C)=O)s2)n1 | 30.4%[activator] | -14.6%[18.4 µM]
CCCNC(=O)C[C@H]1C[C@H]2c3cc(NC(=O)Nc4ccc(F)cc4)ccc3O[C@H]2[C@@H](CO)O1 | -20.4% | -6.8%
CCCCn1nnnc1C(c1cc2ccccc2o1)N(CCC#N)Cc1ccccc1 (stereo not drawn) | 1.8% | 17.8%
COc1ccc(CCN2CC(C(=O)N(C)Cc3ccccn3)CCC2=O)cc1 (stereo not drawn) | -12.8% | 10.8%
COc1ccccc1C(=O)NNC(=O)c1cc2ccccc2cc1O | 31.6%[activator] | -11.2%
CC(=O)Nc1cc(-c2cccc(C(=O)NCCN(C)C)c2)cn2c(-c3ccc(S(C)(=O)=O)cc3)cnc12 | -3.6% | -6.1%[18.4 µM]
Cc1ccc([C@@H]2C[C@H]3[C@@H](CN2S(=O)(=O)c2ccc(C)cc2)C(=O)C[C@@H](c2cccc(Cl)c2)N3S(=O)(=O)c2ccc(C)cc2)cc1 | -20.2% | 5.2%
Cc1onc(-c2ccccc2)c1C(=O)N1CCC(C)(C(=O)NS(=O)(=O)C2CC2)C1 (stereo not drawn) | -18.7% | 0.9%[18.4 µM]
C[C@@H](NS(=O)(=O)c1cc(Cl)ccc1F)[C@H](O)c1ccccc1 | 3.2% | -4.3%
COc1ccc2cc(C3=CC(=O)CC(C)(C)C3=O)ccc2c1 | 35.5%[activator] | 5.4%
CC(C)CN1CCC1(C)C(=O)Nc1cccc(C#N)c1 (stereo not drawn) | -9.2% | 2.6%[18.4 µM]
COc1ccc(C(=O)NNC(=O)c2cc3ccccc3cc2O)cc1 | 1.5% | 33.6%
CC(O)(c1ccccc1)c1nc(-c2ccc3c(c2)OCO3)cs1 (stereo not drawn) | -4.5% | 4.1%[18.4 µM]
CC(=O)Nc1cccc(C(=O)NN2C(=O)NC3(CCC(C)CC3)C2=O)c1 (stereo not drawn) | -24.5% | -7.4%
CCOC(=O)C1CCCN(C(=O)C2(c3ccc(Cl)cc3)CCCC2)CC1 (stereo not drawn) | -35.5% | -0.4%
O=C(O)c1cc(-c2ccccc2)nn1CC1CC(c2cccnc2)=NO1 (stereo not drawn) | -13.8% | 10.7%
COc1ccc(Cc2c(-c3ccc(OC)c(OC)c3)nc3cc(C)c(Br)c(C)n23)c(C)c1 | -19.4% | 1.8%
COC(=O)C1N[C@@H]([C@@H](NC(=O)COc2ccccc2)C(=O)NCc2ccsc2)SC1(C)C (stereo partly drawn) | 1.0% | 8.2%
CCOC(=O)c1oc2cc(O)cc(O)c2c(=O)c1OCc1ccccc1 | -20.9% | 2.6%
CC(C)C[C@H]1CNC(=S)N1CC1CCN(CCCCc2ccccc2)CC1 | ? | -26.8%
COc1cccc(-c2cc(CNC(=O)[C@H]3O[C@@H](n4ccc(N)nc4=O)[C@H](O)[C@@H]3O)no2)c1 | -14.8% | 23.4%
C[C@H](CO)N1C[C@H](C)[C@H](CN(C)C(=O)OCc2ccccc2)OCc2cnnn2CCCC1=O | -12.7% | -4.8%
COc1ccccc1N1CCN(c2ccc3c(c2)S(=O)(=O)c2cccc(C(=O)NCC4CC4)c2C3=O)CC1 | -26.3% | -3.3%
C[C@@H]1CN([C@H](C)CO)C(=O)c2c(c3ccccc3n2C)-c2ccccc2CO[C@H]1CN(C)C(=O)Nc1ccccc1 | -27.7% | 7.1%
CCOc1ccccc1OCCCC(=O)N1CCN(S(=O)(=O)c2cc(F)ccc2F)CC1 | -5.2% | -0.9%

Not all compounds are listed; rates above refer to the full screens.
